High-throughput results (PubChem)
Mtb growth = Mycobacterium tuberculosis H37Rv growth inhibition, cell based, confirmatory dose response (AID 1949); most inactive calls were filed without a number and no value below 0 was filed; inhibition, % at 10 µg/mL, or IC50 in µg/mL where a hit was titrated; actives 1.6% (n = 100,000);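 active = confirmed in a dose series; inconclusive = about 50% or more but not retested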;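 note: bacteria grown 7 days with compound before Alamar blue readout; 0% = untreated bacteria and 100% = reference antibiotic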
An asterisk follows results filed as active; i = inactive; ? = inconclusive. This is a subset; rates above refer to the full screens.

| compound | Mtb growth |
| --- | --- |
| c1ccc(-c2nn3c(C4COc5ccccc5O4)nnc3s2)nc1 (stereo not drawn) | i |
| COC(=O)Cc1c(C)c2cc(Cl)c(OCC(=O)N3CCC(C)CC3)cc2oc1=O | i |
| O=C(Nc1ccc(F)cc1F)N1CCCCC1c1cccnc1 (stereo not drawn) | i |
| CCOC(=O)c1c(NC(=O)CNC2CCCc3c2[nH]c2ccc([N+](=O)[O-])cc32)sc2c1CCCC2 (stereo not drawn) | 2% |
| CCOC(=O)c1c(NC(=O)c2ccncc2)sc2c1C(C)CCC2 (stereo not drawn) | 18% |
| COc1cc(OC)c(NC(=O)c2cc(-c3ccccc3)nc3ccccc23)cc1Cl | i |
| O=S(=O)(NCc1ccccn1)c1ccc(Oc2ccccc2Cl)cc1 | i |
| CC(=O)Nc1c(Nc2ccccc2)c2ccccc2oc1=O | i |
| Fc1ccccc1N1CCN(C(=S)Nc2ccc(OC(F)F)cc2)CC1 | i |
| CCC1=NN(C(=O)C(O)c2ccccc2)C(O)(C(F)(F)F)C1 (stereo not drawn) | i |
| CCOC(=O)C1CCN(C(=O)COc2ccc(S(=O)(=O)N3CCCCC3)cc2Cl)CC1 | i |
| CCCn1c(C2CC(=O)N(c3ccccc3)C2)nc2ccccc21 (stereo not drawn) | i |
| CN(C1CCS(=O)(=O)C1)S(=O)(=O)c1ccc(F)cc1 (stereo not drawn) | i |
| O=C(CSc1nnc2sc3ccccc3n12)N1CCN(c2ccccc2)CC1 | i |
| O=C(CC12CC3CC(CC(C3)C1)C2)NC(=S)Nc1ccc(NC(=O)c2ccco2)c(Cl)c1 | 3% |
| COc1cccc(OCCOCCN2CC(C)CC(C)C2)c1 (stereo not drawn) | 4% |
| COc1ccc(-c2cccc(C(=O)N3CCOCC3)c2)cc1 | i |
| O=C(Nc1ccc(Br)cc1C(=O)O)c1ccc([N+](=O)[O-])cc1 | 5% |
| CC(C)(C)NC(=O)CN(c1cccc([N+](=O)[O-])c1)S(C)(=O)=O | 7% |
| Cc1nn(Cc2ccccc2)c2ncccc12 | i |
| COc1ccc(OC)c(N(CC(=O)N2CCOCC2)S(=O)(=O)c2ccc(OC)c(OC)c2)c1 | i |
| Cc1cc(C)n(C(=O)CNc2cccc(Cl)c2C)n1 | i |
| CCOC(=O)C1=C(C)NC(=O)NC1c1cc(OCC)ccc1Br (stereo not drawn) | i |
| CCCOc1ccc(NC(=O)C(=O)NC)cc1 | i |
| O=C(NNC(=S)NCC1CCCO1)C(Sc1ccccc1)c1ccccc1 (stereo not drawn) | i |
| COc1cc(C(=O)NCc2ccc(CC(C)C)nc2SC)cc(OC)c1OC | i |
| O=C(O)c1ccc2c(c1)C1C=CCC1C(C1CC=CCC1)N2 (stereo not drawn) | i |
| COc1cc(NC(=O)c2nc3nc(C)cc(C(F)F)n3n2)c(OC)cc1Cl | i |
| O=C(Cn1cnc2scc(-c3ccc(Br)cc3)c2c1=O)Nc1ccccc1Cl | 1% |
| C=CCn1c(-c2cccc(OC)c2OC)n[nH]c1=S | i |
| COC(=O)c1c(NC(=O)c2cnccn2)sc(C)c1C | 2% |
| CCOC(=O)C1=C(C)NC2=C(C(=O)CC(c3cccc(OC)c3)C2)C1c1cccnc1 (stereo not drawn) | i |
| COc1ccc(Cl)cc1NC(=S)Nc1ncn(Cc2cccc(C(F)(F)F)c2)n1 | i |
| CC1CN(C(=O)c2ccc(F)cc2)CCN1C(=O)c1ccc(F)cc1 (stereo not drawn) | i |
| O=C(CCCN1C(=O)S/C(=C\C=C\c2ccccc2)C1=O)Nc1cccc(O)c1 | 35% |
| COc1ccc(N2CCN(C(=O)CN(CCc3ccccc3)S(C)(=O)=O)CC2)cc1 | i |
| COc1ccc(Cl)cc1N(CC(=O)N1CCN(C)CC1)S(=O)(=O)c1ccc(C)cc1 | i |
| O=C(O)CCC(=O)Nc1ccc(S(=O)(=O)Nc2ccc(I)cc2)cc1 | i |
| CN(C)c1ccc(CNC2CCCC2)cc1 | i |
| COc1ccc2oc(-c3cccc(NC(=O)c4ccc([N+](=O)[O-])o4)c3)nc2c1 | ? |
| O=C(c1cn(Cc2ccccc2F)c2ccccc12)C1CC1 | i |
| CC(Cc1ccccc1)NC(=O)Cn1cnc2ccccc2c1=O (stereo not drawn) | i |
| COc1ccc(N2C(=O)CC(NCC3CCCO3)C2=O)cc1 (stereo not drawn) | i |
| CC(C)c1ccc(OCC(=O)N2CCN(c3ccccc3F)CC2)c(Br)c1 | 6% |
| CC1CN(Cc2ccccn2)CCC1=O (stereo not drawn) | i |
| COc1cc(CNC(=O)C(Cc2ccccc2)NC(=O)c2ccccc2)cc(OC)c1OC (stereo not drawn) | i |
| CC(C)(Oc1ccc(Cl)cc1)C(=O)NCCCc1ccccc1 | 9% |
| C=CCc1cc(C(=O)N2CCCCC2)ccc1O | 1% |
| O=C(c1ccco1)N(O)c1ccccc1 | i |
| COC(=O)C1=CN(c2cccc(C)c2)C=C(C(=O)OC)C1c1cc(OC)c(O)c([N+](=O)[O-])c1 | i |
| C=CCn1c(COc2ccccc2)nnc1SCC(=O)Nc1ccccc1CC | 4% |
| CC(C)(O)C#Cc1ccc(C(=O)NCc2ccc3c(c2)OCO3)cc1 | i |
| CCOc1ccccc1NC(=O)COc1cccc(CC)c1 | 26% |
| CCCc1cc(=O)oc2cc(OCC(=O)c3ccc(N4CCCC4)cc3)c(Cl)cc12 | 2% |
| O=C(NCc1ccc2c(c1)OCO2)C(=O)NC1CCCC1 | i |
| Cn1c(CNC(=O)c2ccccc2Cl)nnc1SCC(=O)Nc1ccc(Br)cc1F | 1% |
| COc1ccc(Cl)cc1-c1n[nH]c(=S)n1C | i |
| CN1CCc2nc(SCC(=O)c3ccc(Br)cc3)c(C#N)c(-c3ccccc3)c2C1 | 10% |
| O=C(Nc1ccc(I)cc1C(=O)NCCN1CCOCC1)c1ccco1 | i |
| CCc1c(C)c2ccc(OCc3ccccc3)cc2oc1=O | i |

Additional results follow.
| compound | Mtb growth |
| --- | --- |
| CC(=O)c1cccc(NC(=O)CN(C2CCCCC2)S(=O)(=O)c2ccccc2)c1 | i |
| CCOc1ccccc1OCC(=O)Nc1ccc(Cl)cc1Cl | i |
| O=C(O)CCCn1nnc(-c2ccc(F)cc2)n1 | i |
| CCS(=O)(=O)N1CCC(N2CCN(c3ccccc3F)CC2)CC1 | i |
| COc1ccc(-c2noc(CCC3CCCC3)n2)cc1OC | 6% |
| CCOc1ccc(-n2c(SCC)nnc2-c2ccccc2)cc1 | i |
| CCOC(=O)C1=C(c2ccccc2)Nc2ncnn2C1c1cccc(F)c1 (stereo not drawn) | i |
| CCOC(=O)c1c(NC(=O)c2c(Cl)cccc2Cl)sc2c1CCCC2 | i |
| O=C(CCC1CCCC1)N1CCN(Cc2ccc3ccccc3c2)CC1 | 1% |
| Cc1ccc2nc(-c3cccc(Br)c3)cc(C(=O)Nn3cnnc3)c2c1 | i |
| CCOc1ccc(N(CC(=O)Nc2ccccc2C(N)=O)S(C)(=O)=O)cc1 | i |
| CCCCC(=O)Nc1ccc(C(=O)NNC(=O)c2ccccc2Br)cc1 | 9% |
| COc1cccc(/C=C(/C#N)c2ccc(Br)cc2)c1OC(C)C(=O)O (stereo not drawn) | i |
| COC(=O)c1ccc(COC(=O)CNC(=O)c2cccs2)cc1 | i |
| Cc1cc(NC(=O)COc2ccccc2)c(C)cc1I | i |
| O=C(COc1ccc(Br)cc1)Nc1ccc2oc(-c3cccc(F)c3)nc2c1 | 2% |
| N#Cc1nc(COc2ccc(Cl)cc2)oc1N1CCN(C(c2ccccc2)c2ccccc2)CC1 | 2% |
| COc1cc(NC(=S)N2CCN(C(=O)C3CCCO3)CC2)c(OC)cc1Cl (stereo not drawn) | i |
| Cc1ccc(Cl)cc1NC(=O)C1CC(=O)N=C(N)S1 (stereo not drawn) | i |
| CCC(Oc1ccccc1)C(=O)Nc1ccc(S(=O)(=O)N2CCOCC2)cc1 (stereo not drawn) | i |
| CCOC(=O)c1sc(NC(=S)NCc2ccco2)c(C(=O)OCC)c1C | 4% |
| O=C(NCc1cccnc1)c1ccccc1CCc1ccccc1 | i |
| Cc1ccc(CN(CC(=O)Nc2ccc(C)cc2C)S(=O)(=O)c2ccc(C)cc2)cc1 | 9% |
| COc1c(Cl)ccc(Cl)c1C(=O)NC(=S)N1CCOCC1 | i |
| Cc1[nH]c2ccccc2c1C(=O)CCC(=O)O | 2% |
| O=[N+]([O-])c1ccc2onc(-c3ccc(Br)cc3)c2c1 | 0% |
| COc1cc(C(=S)N2CCOCC2)ccc1OCC(=O)Nc1cccc(Cl)c1 | i |
| Cc1ccc(S(=O)(=O)N(CC(=O)Nc2ccccc2F)Cc2ccccc2Cl)cc1 | 1% |
| C#CCS(=O)(=O)c1cccc2cccnc12 | 6% |
| C=CCn1c(COc2cccc3ccc(C)nc23)nnc1SC | i |

For reference, some entries already given.
| compound | Mtb growth |
| --- | --- |
| Cc1ccc(CN(CC(=O)Nc2ccc(C)cc2C)S(=O)(=O)c2ccc(C)cc2)cc1 | 9% |
| COc1c(Cl)ccc(Cl)c1C(=O)NC(=S)N1CCOCC1 | i |
| Cc1[nH]c2ccccc2c1C(=O)CCC(=O)O | 2% |
| O=[N+]([O-])c1ccc2onc(-c3ccc(Br)cc3)c2c1 | 0% |

Other compounds
| compound | Mtb growth |
| --- | --- |
| COc1ccc(C2CC(=O)C3=C(C2)Nc2ccccc2NC3c2c(F)cccc2Cl)cc1 (stereo not drawn) | 8% |
| COc1ccc(OCC(=O)Nc2ccc(N3CCOCC3)c(Cl)c2)cc1 | 0% |
| Cc1ccc(NC(=O)Nc2ccc(F)cc2)nc1 | i |
| O=C(NCCSC1CCCCC1)c1ccc(Br)cc1 | i |
| COc1ccc(Cn2c(-c3nonc3NC(C)=O)nc3ccccc32)cc1 | i |
| CC(C)c1ccc(NC(=O)Cn2cnc3ccccc3c2=O)cc1 | i |
| CCOC(=O)Nc1sc2c(c1C(N)=O)CCCCCC2 | 2% |
| CCc1c(C)c2ccc(OCc3cc4c(cc3Cl)OCO4)cc2oc1=O | i |
| COc1cc(NS(=O)(=O)c2ccc(NC(=O)c3ccco3)cc2)ncn1 | i |
| CCOC(=O)c1ccc(NC(=O)CSc2nnc(CCc3ccc(C)o3)n2-c2ccccc2)cc1 | i |
| O=C(CN1CCCCC1)c1ccccc1 | i |
| Cc1cccc(C(=O)Nc2nnc(/C(C#N)=C/c3ccc(N(C)C)cc3)s2)c1 | 36% |
| CCCCCOC(=O)Nc1ccc(S(=O)(=O)Nc2ccc(Br)cc2)cc1 | 17% |
| COc1ccc(OC)c(N(CC(=O)Nc2ccc(I)cc2C)S(C)(=O)=O)c1 | 3% |
| COC(=O)c1cc(Cl)c(NC(=O)C(C)C)cc1OC | i |
| Cc1cc(C)cc(NS(=O)(=O)c2ccc(NC(=O)C(F)(F)F)cc2)c1 | i |
| CC(C)N(C(=O)Cn1c(-c2ccco2)nc2ccccc21)c1ccccc1 | 0% |
| CCN(CC)C(=O)C(=O)Nc1ccc(Cl)cc1 | i |
| COc1ccccc1NC(=S)N1CC(C)OC(C)C1 (stereo not drawn) | i |
| CCN(CC)CCSc1nc2sc3c(c2c(=O)n1-c1ccc(OC)cc1)CCCC3 | i |
| O=C(CN1C(=O)c2ccccc2S1(=O)=O)Nc1cc(Cl)ccc1Cl | 11% |
| C=CCc1ccccc1OCCCCN1CCCC1 | i |
| O=C(Cc1c(F)cccc1Cl)N1CCN(C(=O)c2ccco2)CC1 | i |
| CC(C)CN(CC(C)C)C(=O)C(C)Oc1cccc(Cl)c1 (stereo not drawn) | 2% |
| O=C1CCCC2=C1C(NC(=O)c1ccccc1F)(C(F)(F)F)C(=O)N2Cc1ccccc1 (stereo not drawn) | i |
| COc1ccc(-c2nn(C)c(=O)c3ccccc23)cc1CNC(=O)c1ccc(C)cc1 | i |
| CCC(C)NC(=O)CN(C)S(=O)(=O)c1ccc2ccccc2c1 (stereo not drawn) | i |
| COC(=O)c1c(NC(=O)CSc2cc(C)c3ccccc3n2)sc2c1CCC2 | i |
| O=[N+]([O-])c1ccc(CSc2ncnc3scc(-c4ccc(F)cc4)c23)cc1 | 0% |
| NC(N)=NC(N)=Nc1ccc(F)c(Cl)c1 | 25% |

Molecules listed so far that contain an NH in an aromatic ring, in the order listed:
| compound | Mtb growth |
| --- | --- |
| CCOC(=O)c1c(NC(=O)CNC2CCCc3c2[nH]c2ccc([N+](=O)[O-])cc32)sc2c1CCCC2 (stereo not drawn) | 2% |
| C=CCn1c(-c2cccc(OC)c2OC)n[nH]c1=S | i |
| COc1ccc(Cl)cc1-c1n[nH]c(=S)n1C | i |
| Cc1[nH]c2ccccc2c1C(=O)CCC(=O)O | 2% |

Two entries from above, as labelled records:
COc1ccc(C2CC(=O)C3=C(C2)Nc2ccccc2NC3c2c(F)cccc2Cl)cc1 (stereo not drawn)
  Mtb growth: 8%
COc1ccc(OCC(=O)Nc2ccc(N3CCOCC3)c(Cl)c2)cc1
  Mtb growth: 0%

More records.
| compound | Mtb growth |
| --- | --- |
| CC1(C)NC(=O)N(CCCCOc2cccc(Br)c2)C1=O | i |
| COc1ccc(NC(=O)c2ccco2)cc1NC(=O)c1cc(I)ccc1Cl | 8% |
| CCOc1ccc(-c2cc(C(F)(F)F)c(C#N)c(SCC(=O)Nc3nccs3)n2)cc1 | 5% |
| CCC(C)NC(=O)c1ccccc1NC(=O)c1ccc(CN2CCc3ccccc3C2)cc1 (stereo not drawn) | i |
| CN1CCN(CCOCCOc2ccc(C(C)(C)C)cc2)CC1 | 2% |
| CS(=O)(=O)Nc1ccc(-c2n[nH]c(=S)n2-c2ccccc2)cc1 | i |
| CCOC(=O)Cc1cc(=O)n2[nH]c(C)c(-c3ccc(OC)cc3)c2n1 | i |
| COc1ccccc1OCCOc1ccc(C(=O)c2ccccc2)cc1 | 1% |
| COc1cc(NC(=O)c2cc(-c3ccccc3Cl)nc3ccccc23)c(OC)cc1Cl | i |
| O=C1CCCC2=C1C(c1c[nH]c3ccccc13)Nc1ccc(C(=O)c3ccccc3)cc1N2 (stereo not drawn) | i |
| CC(C)C1Nc2ccc(C(=O)O)cc2C2C=CCC21 (stereo not drawn) | i |
| CCc1cc2c(=O)n(CC(=O)NC3CCCCC3)cnc2s1 | i |
| CCOc1cc2occ(-c3ccccc3Cl)c(=S)c2cc1CC | i |
| O=C(NCCc1ccccc1)c1ccccc1I | i |
| CCc1cc(-c2[nH]ncc2Oc2ccc(OC)cc2)c(O)cc1O | i |
| COc1ccc(OCCCC(=O)Nc2nnc(C(C)C)s2)cc1 | i |
